KCNQ2 enhance – potentiators of rat KCNQ2 potassium channel; O88943; CHO-K1 KCNQ2, FluxOR thallium flux fluorescence; active compounds read high; B-score at 10 µM; 310,000 tested, 0.54% active; AID 2239;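 active = fluorescence ratio B-score at least 3 SD of library B-scores, with initial fluorescence B-score within 3 SD, cut at about 5.3 in these data; same plate scores as AID 2156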;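 note: B-score of peak minus minimum over baseline fluorescence ratio after K+ and Tl+ stimulus; positive B-score means potentiation of KCNQ2 with more thallium influx and brighter signal; only the inactives scoring about 0 or higher are listed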
Target sequence (O88943 whole entry, looked up): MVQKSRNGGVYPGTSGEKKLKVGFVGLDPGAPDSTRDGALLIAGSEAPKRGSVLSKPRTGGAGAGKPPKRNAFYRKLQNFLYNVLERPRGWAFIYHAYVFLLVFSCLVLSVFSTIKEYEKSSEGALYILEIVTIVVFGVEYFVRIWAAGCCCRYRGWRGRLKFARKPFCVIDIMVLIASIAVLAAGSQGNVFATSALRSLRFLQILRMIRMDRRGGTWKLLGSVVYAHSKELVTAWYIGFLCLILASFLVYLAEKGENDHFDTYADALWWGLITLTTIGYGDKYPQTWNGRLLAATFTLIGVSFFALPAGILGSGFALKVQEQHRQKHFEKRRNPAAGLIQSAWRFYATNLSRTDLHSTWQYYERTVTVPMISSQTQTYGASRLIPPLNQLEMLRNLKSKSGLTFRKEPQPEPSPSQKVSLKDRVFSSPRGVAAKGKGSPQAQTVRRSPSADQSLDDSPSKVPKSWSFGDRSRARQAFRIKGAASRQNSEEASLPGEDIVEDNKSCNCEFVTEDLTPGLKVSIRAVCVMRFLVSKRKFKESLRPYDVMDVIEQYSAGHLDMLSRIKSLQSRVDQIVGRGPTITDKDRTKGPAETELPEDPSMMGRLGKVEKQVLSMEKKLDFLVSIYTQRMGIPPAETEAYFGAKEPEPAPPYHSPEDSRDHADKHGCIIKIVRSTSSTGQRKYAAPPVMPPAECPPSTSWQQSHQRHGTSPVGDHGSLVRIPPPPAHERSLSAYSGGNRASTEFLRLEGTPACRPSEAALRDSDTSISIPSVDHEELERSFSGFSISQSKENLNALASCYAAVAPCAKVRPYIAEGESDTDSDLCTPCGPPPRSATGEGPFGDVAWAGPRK
KCNQ2 enhance baseline – recorded beside KCNQ2 enhance, whose call it bears; B-score; compound at 10 µM; measured here: initial fluorescence intensity artifact check;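 brightness before thallium and not channel activity; 0 = typical well and far values either way flag optical interference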
Active calls of the source: *. These rows are one share of the data. The share of hits here may be higher or lower than overall.

KCNQ2 enhance | KCNQ2 enhance baseline | molecule
0.01 | -0.04 | Cc1ccc(CN2CCN(Cc3c[nH]c4ccccc34)CC2CCO)o1 (centres undefined)
0.7 | 2.4 | C=C1CCN([C@H](C(=O)O)C(C)C)S(=O)(=O)c2ccccc21
0.27 | -0.42 | CC(NC(=O)c1ccccc1OC(F)F)c1ccc(-n2ccnc2)cc1 (centres undefined)
0.34 | -0.33 | CCOC(=O)C1CCN(S(=O)(=O)Cc2ccc(Cl)cc2)CC1
1.7 | 0.38 | COc1ccccc1N1CCN(C(=O)c2cc3cc(C)ccc3[nH]2)CC1
0.18 | -2.3 | CCC1C(=O)N=C(SCC(=O)Nc2nc3ccccc3s2)NC1=O (centres undefined)
1.2 | -1.4 | CCCc1cc(C(=O)Nc2nnc(C)s2)cs1
0.46 | 0 | COc1ccc(CN(C)C(=O)c2ccc3c(=O)n4c(nc3c2)CCC4)cc1
0.25 | -1.5 | COc1ccc(NC(=O)CCCn2cc([N+](=O)[O-])cn2)cc1
1.2 | 0.37 | O=c1[nH]ncc(N2CCCC2)c1Cl
0.98 | 0 | CCOC(=O)C1=C(C)NC(=O)C1CC(=O)O (centres undefined)
1.2 | 0.61 | CN(CC(O)COCc1ccc2c(c1)OCO2)C1CCCCC1 (centres undefined)
1.3 | 0.53 | CC(c1ccccn1)N(CCN(C)C)C(=S)Nc1cccc(F)c1 (centres undefined)
0.02 | -0.26 | CCCCN1C(=O)Nc2ccccc2S1=O (centres undefined)
0.31 | 0.53 | Cc1ccccc1C(=O)NC1CCN(CC(=O)Nc2ccc(Br)cc2)CC1
0.02 | 1.2 | CC(C)N(CCCNC(=O)Cn1c(=O)c2cccn2c2ccc(F)cc21)Cc1ccccc1
0.81 | -0.4 | COC(=O)c1ccc(OS(=O)(=O)c2ccc(NC(C)=O)cc2)cc1
1 | 0.15 | Cc1cc(Cl)c(S(=O)(=O)Nc2ccccn2)cc1OCC(N)=O
0.73 | -0.8 | O=C(Nc1cccc(O)c1)c1cc(-c2ccccc2Cl)on1
0.93 | 0.8 | COc1ccc(OC)c(S(=O)(=O)N2CCC(C(=O)NCCc3ccccc3)CC2)c1
1.4 | 0.25 | COc1cccc(/C=c2\s/c(=C/C(=O)c3ccc(C)cc3)[nH]c2=O)c1OC
0.05 | -0.16 | COC(=O)c1c(-c2cccs2)csc1NC(=O)c1cccnc1
4.6 | 0.03 | O=C(COc1cccc2ccccc12)Nc1cc(Cl)ccc1C(=O)O
1 | 0.01 | CCN1CCN(CC(=O)N2N=C(c3cccs3)CC2c2ccc(OC)cc2)C(=O)C1=O (centres undefined)
0.74 | 0.09 | Cc1nc(-c2ccccc2)sc1C(=O)O

An excerpt from above in order of heavy-atom count, low to high.
KCNQ2 enhance | KCNQ2 enhance baseline | molecule
0.02 | -0.26 | CCCCN1C(=O)Nc2ccccc2S1=O (centres undefined)
0.7 | 2.4 | C=C1CCN([C@H](C(=O)O)C(C)C)S(=O)(=O)c2ccccc21
1.4 | 0.25 | COc1cccc(/C=c2\s/c(=C/C(=O)c3ccc(C)cc3)[nH]c2=O)c1OC

Next compounds:
KCNQ2 enhance | KCNQ2 enhance baseline | molecule
0.57 | 0.89 | Cc1cc(Cl)c(S(=O)(=O)NCC2CCCO2)cc1OCC(=O)NC1CCCCC1 (centres undefined)
0.62 | -1.4 | CCc1cc(S(=O)(=O)N2CCN(C(=O)c3ccco3)CC2)ccc1OC
0.05 | 1.1 | CCC1=C2CC[C@H]3C(=O)N(CC)C(=O)[C@H]3[C@H]2[C@@]2(Cc3ccccc3)C(=NCc3ccccc3)OC(=O)N2C1=O
0.37 | 0.6 | COc1ccc(Cl)cc1NC(=O)COC(=O)CCNC(C)=O
0.92 | -0.74 | N#C/C(=C\c1cccs1)C(=O)NCc1cccnc1
0.91 | -0.97 | COc1ccccc1N1CCN(C(=O)c2cc3cc(Br)ccc3oc2=O)CC1
0.04 | 1.2 | Cc1ccc2nc(-c3ccccc3)cc(C(=O)NNC(=O)c3csc(N4CCOCC4)n3)c2c1
1.7 | -1.4 | Cc1ccc(-n2nc3c(c2NC(=O)C(C)C)CS(=O)(=O)C3)cc1
1.1 | -2.2 | COc1cc(C(=O)Nc2ccccc2C(=O)NCc2cccnc2)cc(OC)c1OC
0.84 | 0.55 | O=C(NC(=S)NCC1CCCO1)c1ccccc1F (centres undefined)
0.68 | -0.76 | COc1cccc(CNC(=O)Cc2ccc(NC(=O)C3=C(C)OCCS3)cc2)c1
0.01 | -0.38 | CC(OC(=O)c1cccc(S(=O)(=O)N2CCCC2)c1)C(=O)c1ccccc1 (centres undefined)
0.4 | -1.1 | Cc1ccc(NC(=O)Cc2cn3ccsc3n2)nc1
0.03 | -0.63 | Cc1cc(C)nc(/N=C(\N)Nc2ccc(S(=O)(=O)Nc3nccc(C)n3)cc2)n1
1.8 | -0.21 | O=C(Cn1ccc([N+](=O)[O-])n1)NCc1cccs1
0.17 | 1.1 | CCNC(=S)NNC(=O)C(c1ccccc1)c1ccccc1
0.43 | 0.56 | CCN(CC)c1ccc(-c2nn3c(-c4ccccc4OC)nnc3s2)cc1
1.4 | -0.89 | CCOC(=O)Cc1csc(NC(=O)Nc2ccc(F)cc2)n1
0.17 | -0.47 | Cc1cccc(OCC(=O)N2CCOCC2)c1
0.02 | -0.75 | CC(C)C1(CCNC(=O)c2cccs2)CCOC(C)(C)C1 (centres undefined)
0.86 | -0.24 | CC(C)(C)OC(=O)N[C@@H](Cc1ccccc1)C(=O)NCC1CCC(C(=O)N[C@@H](CCC(N)=O)C(=O)O)CC1 (some centres undefined)
0.3 | -0.26 | COC(=O)[C@@H]1Cc2c([nH]c3ccccc23)C(C)(C)N1C(=O)CCl
0.98 | -0.02 | CCCOc1ccc(NC(=O)CNC(=O)c2cc(OC)cc(OC)c2)cc1OCCC
0.04 | 0.36 | CCC(=O)Nc1nnc(-c2ccc(OC)cc2)o1
1.6 | -0.09 | O=C(CSc1ncnc2sc3c(c12)CCCC3)c1ccco1

KCNQ2 enhance | KCNQ2 enhance baseline | molecule
0.11 | -0.04 | O=CNc1ccccc1Oc1ccccc1
0.29 | -2.4 | COc1ccc(NC(=O)/C(=C/c2cccnc2)NC(=O)c2cccs2)cc1
0.67 | -0.73 | CCCNc1nc2c(c(=O)n(C)c(=O)n2C)n1CCCc1ccccc1
2.4 | 0.41 | Cc1cc([N+](=O)[O-])ccc1NC(=O)Cc1ccc(F)cc1
0.1 | 0 | O=C(Oc1ccc2c(c1)OCO2)c1cc2c(s1)CCC2
0.2 | -1.4 | COc1ccc(OC)c(NC(=O)c2cc(-c3ccc(C)cc3O)n[nH]2)c1
0.33 | 0.17 | COc1ccc(OC)c(S(=O)(=O)N2CCCC2C(=O)NC(C)c2ccccc2)c1 (centres undefined)
0.2 | 0.15 | Cc1ccc(NC(=O)Nc2cccc([N+](=O)[O-])c2)cc1F
0.04 | 1.2 | CC(C)NCC(=O)C12CC3CC(CC(C3)C1)C2
0.41 | -0.67 | COc1ccc(CC(=O)O/N=C(\N)c2ccncc2)cc1
0.96 | -0.06 | CC(=O)Nc1ccc(NC(=O)c2cc([N+](=O)[O-])cc([N+](=O)[O-])c2)cc1
0.2 | 0.86 | COc1ccc(C(=O)Nc2ccc(S(=O)(=O)Nc3nccc(C)n3)cc2)cc1OC
1.1 | -1 | CCOc1ccccc1NC(=S)N1CCCCCC1
0.14 | -0.69 | O=C(CCc1ccccc1)NNC(=S)NCCc1ccccc1
0.1 | 0.48 | COc1ccc(/C=C2\SC(=S)N(CCCCCC(=O)Nc3cc(C)on3)C2=O)cc1OC
1.6 | -2.4 | CCc1ccc(NC(=O)Nc2ccon2)cc1
1 | 1.3 | CC(=O)N1[C@H](Cc2ccccc2)C=C[C@]1(C)C(=O)NCc1ccccn1
0.67 | 1.5 | CC(C)CC(OC(=O)c1ccco1)C(=O)NCC1CCCO1 (centres undefined)
0.1 | 0.34 | Cc1ccc(/C=N/NC(=O)c2ccncc2)o1
1.6 | -0.91 | CN1C(=O)c2ccccc2N(C)C1c1ccc2c(c1)OCO2 (centres undefined)
0.51 | -0.39 | O=C(Nc1cccc(-c2cscn2)c1)C1CCN(Cc2ccsc2)CC1
0.04 | -0.53 | COc1ccc(-c2c(C)oc3ccc(C)cc23)cc1
0.88 | 0.42 | CC(Oc1ccccc1)C(=O)NNS(=O)(=O)c1ccc([N+](=O)[O-])cc1 (centres undefined)
1.1 | 0.39 | CCCCCn1c(=O)[nH]c2cc(C(=O)N3CCN(C(=O)OCC)CC3)ccc2c1=O
0.46 | 0.08 | COc1ccc(-c2cn3c(C)c(C(=O)NCCN4CCOCC4)sc3n2)cc1

Part of the list above, field by field.
COc1ccc(NC(=O)/C(=C/c2cccnc2)NC(=O)c2cccs2)cc1
  KCNQ2 enhance: 0.29
  KCNQ2 enhance baseline: -2.4
Cc1cc([N+](=O)[O-])ccc1NC(=O)Cc1ccc(F)cc1
  KCNQ2 enhance: 2.4
  KCNQ2 enhance baseline: 0.41
CCCNc1nc2c(c(=O)n(C)c(=O)n2C)n1CCCc1ccccc1
  KCNQ2 enhance: 0.67
  KCNQ2 enhance baseline: -0.73

Additional compounds.
KCNQ2 enhance | KCNQ2 enhance baseline | molecule
1.6 | -0.1 | CC(C)c1ccccc1NC(=O)c1ccc2ncsc2c1
1.7 | 0.58 | CC1=C(C(=O)Nc2ccc([N+](=O)[O-])cc2)C(c2cccc(C(F)(F)F)c2)NC(=S)N1c1ccccc1 (centres undefined)
1.1 | -1.2 | C=CCC1NS(=O)(=O)O[C@H](CCCC)[C@@H]1O (some centres undefined)
0.55 | -0.72 | CC1=NN(c2ccccc2)C(=O)C1C(=O)c1ccccc1 (centres undefined)
0.1 | -0.03 | Cc1cccc(NC2=C(Cl)C(=O)OC2OC(C)C)c1 (centres undefined)
0.54 | -0.01 | Cc1ccc(-c2csc(NCCn3c(-c4ccncc4)nc4ccccc43)n2)cc1
0.6 | -1.5 | CC(C)OC(=O)C(C)Oc1ccc(C(=O)NCCc2ccccc2)cc1 (centres undefined)
1.2 | 0.2 | Cc1[nH]n(C(N)=S)c(=O)c1N=Nc1ccccc1C(F)(F)F
1.8 | 0.25 | CCOc1ccc(/C=N/NC(=O)C(C)Sc2ccccn2)cc1OCC (centres undefined)
1.8 | -0.45 | Cc1ccc2nc(Cl)c(C3CC(c4ccco4)=NN3C(=O)CCCC(=O)O)cc2c1 (centres undefined)
0.22 | -1.4 | CCOC(=O)c1cnc(SCC(=O)Nc2ccc(NC(C)=O)c(OC)c2)nc1N
1.1 | 0.15 | COc1cc(CCCN2C(N)=NC[C@@H]2c2ccccc2)cc(OC)c1OC
1.2 | -2.1 | O=C(NC1CCCC1)C(c1cccs1)N(Cc1ccco1)C(=O)Cn1nnc(-c2cccs2)n1 (centres undefined)
0.79 | -0.68 | C/C(=N\NC(=O)CCCOc1ccc(Cl)cc1C)c1ccc(C)o1
0.13 | 0.05 | COc1ccccc1/C=C/C=N/n1c(-c2n[nH]c3c2CCC3)n[nH]c1=S
0.62 | -0.8 | O=C(NCC1CCCO1)C1CC1(c1ccccc1)c1ccccc1 (centres undefined)
0.98 | 0.06 | CN(CC(=O)Nc1ccccc1)CC(=O)Nc1ccc(F)cc1
0.18 | 0.88 | CN(C)CCNc1c2c(nc3nnnn13)CCCC2
0.5 | -0.2 | CCn1c(=O)c2ccccc2n(Cc2cccc([N+](=O)[O-])c2)c1=O
1.3 | 0.76 | CCN(CC)CCCNC(=O)c1cc2nc3c(c(C(F)(F)F)n2n1)CCc1ccccc1-3
1.1 | 0.56 | CCCCC(=O)OCc1nc(N)nc(Nc2ccccc2C)n1
0.16 | -0.15 | COc1ccc(C(=O)/C=C/c2ccc(OC3CSC3)cc2)cc1OC
1.6 | -0.44 | O=C(NCC1CCCO1)c1ccccc1-c1nc(-c2ccc(F)cc2)no1 (centres undefined)
0.36 | 1.2 | CC1=NC(=O)C(N=Nc2cccc(C(=O)O)c2)N1c1ccccc1 (centres undefined)
0.47 | -1.9 | Cc1ncsc1CCOC(=O)c1ccc(Cl)cc1

KCNQ2 enhance | KCNQ2 enhance baseline | molecule
0.74 | 1.3 | CCNc1nc(NCC)n2c(SCC(=O)Nc3ccc(OC)c(OC)c3)nnc2n1
0.88 | -0.79 | O=C1Nc2cc3c(cc2Sc2ccccc21)OCCO3
0.02 | 0.71 | O=c1[nH]nc(Cc2ccc(Cl)cc2)c2ccccc12
0.24 | 2.5 | Cc1ccccc1-n1c(=O)cc(NCC2CCCO2)[nH]c1=O (centres undefined)
0.2 | -0.04 | NC(=O)C1CCN(C(=O)COc2ccc(S(=O)(=O)NCc3ccccc3)cc2Cl)CC1
0.29 | 0.09 | O=C1C(=O)N2C(=C1C(=O)N1CCCCCC1)c1ccccc1CC21CCCC1
0.49 | 1.9 | N#Cc1ncccc1CCc1cccc(Cl)c1
1.1 | -2.5 | C/C=C/C=C/C(=O)Nc1cccc(C2=NOC3(C2)C[C@H](C(N)=O)N(C(=O)CC(c2ccccc2)c2ccccc2)C3)c1 (some centres undefined)
1.4 | 1.2 | Cc1cc(/C=C(/C#N)C(=O)Nc2ccccc2)c(C)n1-c1cccnc1
0.05 | 0.2 | CCOc1ccc(C(=O)NCCc2ccccc2)cc1
1 | 0.07 | CCOc1ccc(NC(=O)c2ccccc2CO)cc1
1.4 | 0 | CC(C)NC(=O)CN(CCc1ccccc1)S(C)(=O)=O
1.4 | 1.8 | COc1ccc(-c2cc(-c3nnc(-c4ccncc4)o3)c3ccccc3n2)cc1
0.64 | -0.76 | COc1ccc(-c2cccc(C(=O)NCC(=O)O)c2)cc1
1.3 | -0.95 | CCOc1ccc(NC(=O)CSc2nnnn2CC(=O)O)cc1
0.03 | 0.27 | COc1ccc(C(C)(C)C)cc1NC(=O)c1ccc[n+]([O-])c1

Record cards, from the list above:
Entry for CCNc1nc(NCC)n2c(SCC(=O)Nc3ccc(OC)c(OC)c3)nnc2n1 : KCNQ2 enhance: 0.74; KCNQ2 enhance baseline: 1.3
Entry for Cc1cc(/C=C(/C#N)C(=O)Nc2ccccc2)c(C)n1-c1cccnc1 : KCNQ2 enhance: 1.4; KCNQ2 enhance baseline: 1.2

High-throughput results as filed in PubChem BioAssay.
